PABP FP inh – PABP poly(A) RNA binding inhibitors, primary screen, biochemical, fluorescence polarization, uHTS; actives 1% (n = 290,000); Polyadenylate-binding protein 1 (Homo sapiens), P11940; inhibition, % at 35 µM;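 active = 50% or more with normal probe brightness, or confirmed in later tests; inconclusive = above 50% with abnormal brightness, or retests that disagree; inactive = below 50% or failed in later tests; about a fifth of its hits are not listed in these tables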;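 also: calls also rest on retests at 20 µM and on dose response follow-up; controls were probe without protein and protein plus probe with vehicle; some compounds called inactive have numbers as strong as hits; many hits fall short of the cut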
Target sequence (P11940 whole entry, looked up): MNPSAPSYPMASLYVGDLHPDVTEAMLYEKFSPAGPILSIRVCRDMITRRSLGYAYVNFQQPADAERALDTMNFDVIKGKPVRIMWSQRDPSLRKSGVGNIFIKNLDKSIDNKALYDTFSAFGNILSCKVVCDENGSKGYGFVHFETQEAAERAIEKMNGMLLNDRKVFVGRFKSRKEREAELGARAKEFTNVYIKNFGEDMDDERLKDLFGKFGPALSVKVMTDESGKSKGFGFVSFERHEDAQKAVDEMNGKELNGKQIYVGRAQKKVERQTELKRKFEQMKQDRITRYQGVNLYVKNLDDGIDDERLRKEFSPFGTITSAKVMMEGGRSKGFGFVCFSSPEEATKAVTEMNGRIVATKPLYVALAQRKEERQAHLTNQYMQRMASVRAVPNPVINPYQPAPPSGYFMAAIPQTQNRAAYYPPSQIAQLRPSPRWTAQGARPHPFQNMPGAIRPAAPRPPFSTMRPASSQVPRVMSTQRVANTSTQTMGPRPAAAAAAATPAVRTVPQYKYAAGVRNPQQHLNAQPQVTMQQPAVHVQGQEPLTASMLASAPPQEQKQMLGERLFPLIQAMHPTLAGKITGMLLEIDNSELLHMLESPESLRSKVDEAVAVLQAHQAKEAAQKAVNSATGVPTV
MT1-MMP act inh – blockers of MT1-MMP proenzyme processing, primary screen, HT1080 RFP-PRO-GFP cells, GFP/RFP fluorescence; GFP/RFP ratio change, % at 20 µM; GFP/RFP ratio fluorescence, overnight; percent of plate control window, DMSO zero; actives 0.061% (n = 360,000);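 active = GFP/RFP ratio change of at least 30% with cell ATP level not reduced by more than half and red fluorescence within 50% of control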; also: strong numbers were not always called active
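Assay system: HT1080 RFP-PRO-GFP cells. Benchmarks: DMSO vehicle wells and RFP-L50D-GFP reporter cell wells. Times: overnight cell settling, then overnight compound exposure, 37 °C, 5% CO2. Compound: 20 µM single dose, 1% DMSO. Read-out basis: GFP/RFP fluorescence ratio.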
CSC inhib – cancer stem cell viability inhibitors, primary screen, luminescence | cancer stem cell-like cells viability | inhibition, % at 7.5 µM | actives 1.1% (n = 300,000) | AID 2717, 2010;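 active = mean at 75% or more and at least half the replicates too; inconclusive = mean and replicates disagree; tested in HMLE shEcad cells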;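 also: 0% = median of negative and 100% = median of positive control wells; the first replicate is given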
Rce1 inhib – yeast Rce1p protease inhibitors, primary screen, biochemical, fluorescence, cell-free homogeneous | actives 0.27% (n = 290,000) | AID 2563, 2010 | CAAX prenyl protease 2 (Saccharomyces cerevisiae (strain ATCC 204508 / S288c)), Q03530 | calls only | yeast membranes, quenched prenylated peptide cleavage fluorescence;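 active = fall in fluorescence gain of 50% or more versus controls, with final raw signal at or below 3038400; inconclusive = same 50% fall but final raw signal above 3038400; inactive = fall in fluorescence gain under 50%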;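 also: plate controls were neutral control wells for no effect and wells lacking membranes for full effect; tested at 10 µM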
eIF4H inh – human eIF4H binding inhibitors, primary screen, translation initiation inhibitor project, biochemical, uHTS, fluorescence polarization | eIF4H fluorescence polarization binding assay | inhibition, % at 35 µM | actives 0.94% (n = 290,000) | AID 2012, 2009;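 active = 50% or more with normal probe brightness, or confirmed in later tests; inconclusive = above 50% with abnormal brightness, or retests that disagree; inactive = below 50% or failed in later tests; about a fifth of its hits are not listed in these tables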;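 also: calls also rest on retests at 20 µM and on dose response follow-up; 0% = protein and probe with vehicle and 100% = probe without protein; strong numbers were not always called active; many hits fall short of the cut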
Env fusion inh – inhibitors of HIV-1 Env-driven cell-cell fusion, primary screen, HeLa-JRFL effector, CEM21 target cells, luciferase; actives 1.1% (n = 360,000); AID 651610, 2012; inhibition, % at 12.3 µM;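 active = mean replicate inhibition score of at least 50 and every replicate individually at or above 50; inconclusive = only one of the two criteria met; inactive = mean below 50 and not all replicates reaching 50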;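 also: 0% = plate neutral controls and 100% = maraviroc near 300 nM; one replicate is shown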
UUG fidelity – modulators of yeast start codon fidelity, primary screen, whole organism, S. cerevisiae, single point, plate reader; S. cerevisiae UUG-firefly luciferase reporter, luminescence/redox ratio; activity score, % at 18.7 µM; actives 0.13% (n = 350,000); AID 602363, 2012;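 active = replicate mean at a twofold rise or more, about +100% in these data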;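 also: firefly luciferase made from a UUG start codon reports start codon fidelity; reporter light over untreated wells divided by growth signal over untreated wells; some hits fall short of that in this replicate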
eIF4H inh retest – second read-out of eIF4H inh, no call of its own (marks repeat the call); inhibition, %; compound at 20 µM; confirmation average;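 mean of two retest wells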
PABP FP inh retest – second read-out of PABP FP inh, no call of its own (marks repeat the call); inhibition, %; compound at 20 µM; confirmation repeats;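 mean of two retest wells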
MT1-MMP act inh RFP – second read-out of MT1-MMP act inh, no call of its own (marks repeat the call); RFP signal change, %; measured here: RFP expression control read;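 0 = vehicle wells; hits needed this value within 50% of zero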
The depositor's hits bear a star; i = inactive; ? = inconclusive; / = not tested or not shown.

SMILES | PABP FP inh | MT1-MMP act inh | MT1-MMP act inh RFP | CSC inhib | Rce1 inhib | eIF4H inh | Env fusion inh | UUG fidelity | others
COc1ccc(CNC(=O)N2CCN(c3ccccc3)CC2)cc1 | -4 | 0 | 3 | -1 | i | -12 | 3 | -3
CC1CCCC(C)N1C(=O)COc1ccc(C(=O)Nc2ccccc2N2CCOCC2)cc1 (configuration not stated) | 4 | -1 | 1 | -5 | i | -1 | 8 | /
O=C(COC(=O)c1ccc(NS(=O)(=O)c2ccc(F)c(F)c2)cc1)NCC1CCCO1 (configuration not stated) | -5 | 5 | 3 | -6 | i | -7 | 1 | /
CCS(=O)(=O)N1CCC(C(=O)Oc2ccc(Br)cc2)CC1 | 8 | 0 | -4 | -3 | i | -4 | -5 | 10
C/C(CC(=O)NC(C)C)=N\NC(=O)C(c1ccccc1)c1ccccc1 | -13 | -3 | 0 | -2 | i | -7 | 0 | /
O=C(N[C@@H]1C[C@H]2CC[C@@H]1C2)c1ccco1 | 1 | 2 | 0 | -3 | i | -10 | -1 | -8
CCOC(=O)c1c(NC(=O)CCC(=O)N(CC)CC)sc2c1CC(C)(C)OC2 | -9 | -3 | -2 | -5 | i | 2 | 23 | 17
O=C(c1ccc(S(=O)(=O)Cc2cc(F)ccc2F)c([N+](=O)[O-])c1)N1CCOCC1 | / | 6 | -6 | / | / | / | 29 | -24
O=C1C2C(c3ccccc3)CC=CC2[C@H](c2ccc(C(F)(F)F)cc2)N1Cc1ccccc1 (some centres not stated) | 1 | -9 | -21 | ? | i | 0 | 27 | -11
Cc1c(C(Nc2ccccn2)c2ccc(Cl)cc2)c(=O)n(-c2ccccc2)n1C (configuration not stated) | 4 | -1 | 1 | -2 | i | -4 | -131 | 6
COC(=O)CCN(Cc1cc(OC)ccc1OC)S(=O)(=O)c1ccccc1Br | / | 3 | 1 | / | / | / | -6 | 12
COc1ccc(C(CNC(=O)CNC(=O)c2cccc(C)c2)N2CCOCC2)cc1 (configuration not stated) | / | 0 | 2 | -12 | / | / | / | -1
COc1cccc(C2/C(=C(\O)c3ccc4c(c3)OCCO4)C(=O)C(=O)N2CCCn2ccnc2)c1 (configuration not stated) | -2 | -2 | 2 | -14 | i | -8 | -9 | -24
COc1cc(-c2noc(C)c2/C=C/c2ccc(C(=O)O)cc2)cc(OC)c1OC | 66* | -3 | -6 | 42 | i | 100* | / | -2
O=C(c1ccco1)N1CCN(C(=O)c2cnn(-c3ccc(F)cc3)c2-n2cccc2)CC1 | / | 1 | 1 | / | / | / | -24 | 9
COc1ccc(-c2coc3c(C(=O)NCc4ccc(OC)c(OC)c4)cccc23)c(C)c1 | / | 2 | -30 | / | / | / | 38 | 3
COc1ccc(NC(=O)c2ccccc2C(=O)N2CCCCC2)cc1 | -4 | 0 | 3 | 3 | i | 7 | -16 | 4
CCOC(=O)COc1ncn(-c2ccccc2)n1 | 4 | 1 | 0 | 6 | i | 0 | / | -3
CC1CCN(S(=O)(=O)c2cn(CC(=O)Nc3cccc(C#N)c3)cn2)CC1 | 2 | 2 | -7 | 1 | i | -8 | -10 | -14
COc1ccc(C(=O)NN(C)c2nc(C(F)(F)F)nc3ccccc23)cc1 | -4 | -5 | -14 | 18 | i | -4 | -70 | /
Fc1ccc(Nc2nc(-c3ccncc3)nc3ccccc23)cc1F | 9 | -3 | -7 | 0 | i | -8 | 22 | -4
O=C(Cn1c2[n+](c3ccc(C(F)(F)F)cc31)CCCCC2)c1cccc([N+](=O)[O-])c1 | -5 | 0 | 1 | 1 | i | -1 | 18 | -7
CCCCCCCCC(=O)N/N=C/c1cccc(Br)c1 | -9 | 3 | 0 | -2 | i | -1 | / | -11
COc1ccc(CCN(C)C(=O)c2c(C)nn(-c3ccccc3)c2C)cc1OC | 18 | -3 | -3 | -8 | i | -1 | -4 | -4
CCCCNC(=O)Cn1cnc2ccc(S(=O)(=O)N3CCC(C)CC3)cc2c1=O | 7 | 2 | 4 | -3 | i | -5 | 15 | /
Cc1cc(C(=O)CN2C(=O)NC3(CCCCC3)C2=O)c(C)n1Cc1ccco1 | -7 | 1 | -3 | -6 | i | 5 | -63 | -20
CCC(C(=O)Nc1cc(C)cc(C)n1)c1ccccc1 (configuration not stated) | / | -18 | -18 | -5 | i | / | -9 | 0
Cc1cc(=O)oc2cc(OCC(=O)N3CCN(C(=O)C4COc5ccccc5O4)CC3)c(Cl)cc12 (configuration not stated) | 6 | 0 | -4 | -14 | i | -2 | -2 | -9
CC1CC(C(F)F)n2nc(C(=O)Nc3sc4c(c3C#N)CCC(C(C)(C)C)C4)nc2N1 (configuration not stated) | -3 | 2 | -1 | -19 | i | 3 | -41 | -5
COc1ccc(NC(=O)C2Cc3c(-c4ccncc4)ccnc3O2)cc1OC (configuration not stated) | / | -2 | -13 | / | / | / | 26 | -8
Cc1[nH]c2ccccc2c1/C=N/NC(=O)CNC(=O)Cc1ccccc1 | 1 | 1 | 1 | 23 | i | -6 | 3 | -18
COc1ccc(OC)c(C(C)NC(=O)Nc2cccc(C(C)=O)c2)c1 (configuration not stated) | -5 | -2 | -3 | 9 | i | -3 | 4 | /
COc1cc(Cl)c(C)cc1NC(=O)COC(=O)c1cc[n+]([O-])cc1 | 2 | 2 | 3 | -11 | i | -10 | -1 | /
CC1CCC(NC(=O)c2ccc(CNc3c(NC4CCCCC4)c(=O)c3=O)cc2)CC1 (configuration not stated) | 6 | -4 | 3 | -5 | i | 3 | 15 | -4
Cc1ccc(OCC(=O)Nc2ccc(S(=O)(=O)Nc3cc(C)nc(C)n3)cc2)cc1 | 7 | 3 | 4 | -8 | i | -5 | 24 | 8
CCN(CC)CCC(=O)Nc1cccc2c1C(=O)c1ccccc1C2=O | 29 | -7 | 7 | 25 | i | 3 | -52 | -5
COc1cc(OC)cc(C(=O)Nc2ccccc2-c2nnn(CC(N)=O)n2)c1 | 21 | 4 | 1 | -1 | i | -8 | -14 | /
O=S(=O)(NCC(c1ccc2c(c1)OCO2)N1CCOCC1)c1ccc(F)cc1 (configuration not stated) | / | -1 | 1 | 8 | i | / | -10 | -8
CCN(C(=O)CN1C(=O)COc2ccc(S(=O)(=O)N3CCOCC3)cc21)c1ccc(OC)cc1 | / | -1 | 4 | -10 | i | / | 0 | -10
COC(=O)Cc1ccc(NC(=O)c2ccc(C)c(C)c2)cc1 | 4 | -2 | 2 | -4 | i | -1 | -194 | 2
Cc1cc(C)nc(NS(=O)(=O)c2ccc(NC(=O)Nc3ccccc3F)cc2)n1 | 11 | -4 | -3 | -7 | i | -7 | -10 | -9
CCOC(=O)c1c(C)nsc1NC(=O)C1CCCCC1 | -5 | 0 | -2 | 12 | i | 3 | 19 | -7
COc1ccccc1CCNC(=O)COc1cccc2c1OC(C)(C)C2 | / | -1 | -2 | -11 | i | / | 15 | /
CCCNC(=O)c1cc(C)no1 | 2 | 3 | 5 | -2 | i | 5 | 35 | -12
O=C(NCc1ccc(F)cc1)C(=O)NCC1OCCN1C(=O)c1cccs1 (configuration not stated) | -8 | 1 | 1 | -10 | i | -5 | -6 | -2
CCN(c1ccccc1)S(=O)(=O)c1ccc(OC)c(NC(=O)c2ccco2)c1 | / | 3 | -2 | / | / | / | -32 | -8
CCS(=O)(=O)c1ccc(Sc2nncn2C)c([N+](=O)[O-])c1 | 2 | 5 | 5 | -2 | / | -2 | 13 | /
COc1cccc(/C=N/NC(=O)C(c2ccncc2)N2CCOCC2)c1 (configuration not stated) | 2 | -2 | -1 | -5 | i | 9 | 9 | -5
CCOC(=O)C1CCCN(CCC(=O)Nc2c(C(=O)OC)[nH]c3cc(OC)ccc23)C1 (configuration not stated) | -19 | -1 | 1 | 4 | i | -6 | -21 | -12
Cc1cc(NC(=O)CSc2nnc(-c3cccnc3)n2N)no1 | 17 | 2 | 2 | -6 | i | 0 | / | -15
Cc1cc(C)n(-c2nc3ccccc3nc2Nc2ccc3[nH]c(=O)[nH]c3c2)n1 | 96 | -35 | -3 | -13 | / | 121 | / | / | eIF4H inh retest=3;PABP FP inh retest=-6
O=c1cc(CO)[nH]cc1OCc1ccccc1 | -2 | -4 | 1 | -12 | i | 9 | 3 | -4
O=C(NCc1cccc(Cl)c1)C1CCN(c2nnc(N3CCCC3=O)s2)CC1 | -4 | 4 | 5 | -3 | i | 4 | 21 | -3
CCN1C(=O)[C@H]2[C@@H](c3ccc(-c4ccc(C(C)=O)cc4)c(OC)c3)N3CCCC[C@@]3(C(=O)OC)[C@H]2C1=O | / | -4 | -4 | / | / | / | -4 | -3
Cc1cc2c(cc(C(=O)OCC(=O)NCc3cccs3)n2C(C)C)o1 | -3 | -2 | -10 | 66 | i | 2 | / | /
C#CCOCCOCCOCCNc1nc(N2CCN(C(=O)C(CCC(=O)O)n3cc(C(N)CC(C)C)nn3)CC2)nc(N2CCN(C(=O)C(Cc3cc4ccccc4[nH]3)n3cc(C(N)Cc4ccc(O)cc4)nn3)CC2)n1 (configuration not stated) | -6 | -1 | 6 | -16 | i | -8 | / | /
CN(C)/C=C1\C(=O)N(c2ccc([N+](=O)[O-])cc2)N=C1c1ccccc1 | -3 | -1 | -5 | -13 | i | -9 | / | -2
COc1ccc(CCNC(=S)Nc2ccc(C)cc2C)cc1 | -5 | -2 | -2 | 6 | i | 0 | 17 | /
COc1ccc(S(=O)(=O)N2C[C@@H](O)COC[C@@H]3O[C@H](CC(=O)NCCCN4CCOCC4)CC[C@H]32)cc1 | / | -1 | 5 | / | / | / | 6 | -5
CC(C)N=C(NS(=O)(=O)NC(=O)c1ccccc1)c1ccccc1 | -9 | -1 | 5 | -23 | i | -2 | 8 | /
Following part:
SMILES | PABP FP inh | MT1-MMP act inh | MT1-MMP act inh RFP | CSC inhib | Rce1 inhib | eIF4H inh | Env fusion inh | UUG fidelity | others
Nc1nonc1-n1nnc(C(=O)N/N=C/c2ccccc2Cl)c1COc1ccc(F)cc1 | -1 | 1 | -3 | -3 | i | -13 | -2 | /
CCNCC(=O)Nc1ccc(N2CCOCC2)cc1 | 49 | -2 | 1 | -8 | i | -9 | 3 | 0
O=C(OCC(=O)N1CCOCC1)c1c(Cl)ccc(Cl)c1Cl | 14 | 3 | 4 | -3 | i | 8 | -6 | /
COc1ccc(NC(=O)CCCNC(=O)c2ccc(Cl)cc2)cc1S(=O)(=O)N1CCCCC1 | / | 2 | -12 | / | / | / | -4 | 6
COc1ccc(-c2cc(=O)oc3c(C)c(OCC(=O)NCC4CCC(C(=O)O)CC4)ccc23)cc1 (configuration not stated) | 23 | 1 | -1 | -14 | i | -10 | / | -16

Assay outcomes as filed in PubChem BioAssay.
